Cruzain noTriton = blocks cruzain activity in detergent-free assay; P25779; purified cruzain, Z-FR-AMC fluorescence, no detergent; Potency, µM, inactives show max response, negative = inhibition, actives largely listed as inhibitors; 2.3% of 200,000 active; AID 1476;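 further: plate controls were enzyme without inhibitor for no effect and buffer without enzyme for full effect; nearly all actives have a fitted effect of over 40% in size; top concentration of the series not given in the record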
Target sequence (P25779 123-467 limits assumed): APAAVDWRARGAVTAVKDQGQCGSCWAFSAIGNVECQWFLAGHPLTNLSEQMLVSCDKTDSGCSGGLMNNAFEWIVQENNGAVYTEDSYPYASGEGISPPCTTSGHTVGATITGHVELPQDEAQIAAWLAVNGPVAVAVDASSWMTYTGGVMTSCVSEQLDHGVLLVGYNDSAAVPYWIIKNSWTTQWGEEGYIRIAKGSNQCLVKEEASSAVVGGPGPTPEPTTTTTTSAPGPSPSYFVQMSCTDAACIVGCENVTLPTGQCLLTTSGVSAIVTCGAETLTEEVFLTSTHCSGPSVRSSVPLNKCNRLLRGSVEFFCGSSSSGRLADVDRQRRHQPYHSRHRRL
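Purified cruzain at 1.5 nM, pre-incubated 15 min with compound at room temperature in 100 mM sodium acetate pH 5.5, 5 mM DTT, 0.00005% Triton X-100. Reaction started with 2 uM Z-FR-AMC; AMC fluorescence increase over 60 s gives rate.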
LASV entry inh = inhibitors of Lassa virus binding or cell entry; Lassa virus pseudotype entry inhibition, cell reporter; control for the full effect not named in the record; Potency, µM (doses to about 37.9 µM), for the others: at the top dose activity change, negative = inhibition, hits mostly inhibitors; 1.2% of 300,000 active; AID 540256; active means well fitted inhibition curve with a large enough effect; inconclusive means small, poorly fitted or top-dose-only effect, or effect the other way; inactive means flat fitted curve, though single readings scatter; tested in HEK293 cells; further: on the % scale 0 is the no-effect control and ±100 the full control effect; nearly all actives have a fitted effect of over 50% in size; luciferase read-out
NS1 function inh = blocks influenza NS1 protein function; S. cerevisiae slowed by influenza A NS1, growth recovery by OD600; Potency, µM (highest dose often 46.1 µM), without a hit: at the highest dose activity, positive = more growth; 0.4% of 270,000 active; AID 2326; active means well fitted rising curve with a large enough effect; inconclusive means small, poorly fitted or top-dose-only effect; inactive means no such curve, though single readings can be large or run the other way; further: nearly all actives have a fitted effect of over 50% in size
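A cell-based growth assay was used: compounds that relieve NS1-induced slow growth of budding yeast raise OD600. Assay medium was yeast nitrogen base with ammonium sulphate and -URA supplement, pH 6.0, with 2% galactose.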
Marburg entry inh = blocks Marburg virus binding to or entry into cells; Potency, µM (series often up to 37.8 µM), for the others: top-dose activity change, negative = inhibition, most hits filed as inhibitors; Marburg virus pseudotyped entry inhibition, cell reporter; control for the full effect not named in the record; about a third of the inactives were read at about 46 µM; AID 540276; 1.8% of 300,000 active; active = well fitted inhibition curve with a large enough effect; inconclusive = small, poorly fitted or top-dose-only effect, or effect the other way; inactive = flat fitted curve, though single readings scatter; tested in HEK293 cells; about a fifth of its hits are not listed in these tables; further: on the % scale 0 is the no-effect control and ±100 the full control effect; luciferase read-out
StopGo reporter = lowers the luciferase signal of an FMDV 2A StopGo reporter; 1.2% of 410,000 active; Potency, µM (doses to about 57.9 µM), without a hit: at the highest dose signal change, negative = less light; human cells with a luciferase reporter of 2A StopGo recoding; control for the full effect not named in the record; active = well fitted falling curve with a large enough effect; inconclusive = small, poorly fitted or top-dose-only effect; inactive = no such curve, though single readings can be large or run the other way; tested in HEK293T cells; further: on the % scale 0 is the no-effect control and ±100 the full control effect; nearly all actives have a fitted effect of over 45% in size; luciferase light after 4 h
Cruzain inh Det = blocks cruzain activity in presence of Triton detergent; P25779; purified cruzain, Z-FR-AMC fluorescence, 0.01% Triton; Potency, µM, without a hit: max response, negative = inhibition, hits mostly inhibitors; 0.43% of 200,000 active;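 further: plate controls were neutral wells for no effect and buffer without enzyme for full effect; nearly all actives have a fitted effect of over 40% in size; top concentration of the series not given in the record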
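Cysteine protease activity tested under reducing, mildly acidic conditions (100 mM sodium acetate pH 5.5, 5 mM DTT) plus 0.01% Triton X-100. Cruzain 1.5 nM; substrate Z-FR-AMC 2 uM; 15 min compound preincubation at room temperature.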
SARS PLP yeast = SARS-CoV PLP inhibition in yeast | 0.19% of 330,000 active | S. cerevisiae expressing SARS-CoV PLpro, growth rescue; control for the full effect not named in the record | AID 485353 | Potency, µM (doses to about 32.9 µM), for inactives: at the highest dose activity, positive = growth rescue; active means well fitted rising curve with a large enough effect; inconclusive means small, poorly fitted or top-dose-only effect; inactive means no such curve, though single readings can be large or run the other way; further: 0% is about no effect; nearly all actives have a fitted effect of over 55% in size; growth read by luminescence after 48 h
RE007 growth inh = less growth of the S. pombe RE007 Vpr strain | S. pombe RE007 Vpr strain, BacTiter-Glo ATP luminescence, 24 h; control for the full effect not named in the record | Potency, µM (highest dose often 92.2 µM), for inactives: at the highest dose activity change, negative = less growth | 0.21% of 360,000 active | AID 651644; active = well fitted falling curve with a large enough effect; inconclusive = small, poorly fitted or top-dose-only effect; inactive = no such curve, though single readings can be large or run the other way;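 further: on the % scale 0 is the no-effect control and ±100 the full control effect; nearly all actives have a fitted effect of over 50% in size; the assay follows cell death caused by Vpr and the record does not say whether a fall means rescue or toxicity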
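Fission yeast strain RE007, carrying one chromosomally integrated HIV-1 vpr copy, was seeded at OD 0.01 in PMG+AL medium with 23 nL pinned compound. After 24 h at 30 °C and 99% humidity, viability was read by BacTiter-Glo luminescence.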
An asterisk follows results filed as active; ? = inconclusive; nt = no result given; & = joins results of further samples; [ ] = dose if it differs, or a comment. Unless noted, the call rests on the fitted dose curve; in most records, active means well fitted curve in the direction sought with a large enough effect; inconclusive means small, poorly fitted or top-dose-only effect, or another doubt; inactive means no such curve, though single readings can be large; an effect the other way counts as inactive or inconclusive. Potency means the concentration at half of the fitted maximal effect.

SMILES | Cruzain noTriton | LASV entry inh | NS1 function inh | Marburg entry inh | StopGo reporter | Cruzain inh Det | SARS PLP yeast | RE007 growth inh
CCc1c(C(=O)Nc2ccc(S(=O)(=O)N3CCOCC3)cc2)csc1C | 1% | -21% | -26% | 6% | -24% | -2.0% | -19% | -14%
O=C(Nc1cccc(S(=O)(=O)N2CCCCC2)c1)C1CCCN1S(=O)(=O)c1ccccc1F (stereo not given) | nt | ? | nt | ? | -19% | nt | -2% | 13%
CCOC(=O)c1[nH]c2ccccc2c1NC(=O)CC(C)C | nt | nt | -1% | nt | 0% | nt | 2% | 9%
CC(C)CCC1(CCO)C(=O)NC(=S)NC1=O | nt | -5%[46.1 µM] | nt | 0%[46.1 µM] | -6% | nt | nt | 14%
COC(=O)C1(c2ccccc2)NC(c2cccs2)C2C(=O)N(c3ccccc3)C(=O)C21 (stereo not given) | nt | -2% | nt | 16% | -17% | nt | nt | -20%
Cc1cc(CN(C)C(=O)C2CCC(=O)N(CCc3cccc(F)c3)C2)on1 (stereo not given) | nt | 10% | 1% | ? | 15% | nt | -3% | -1%
Cc1nn(C)c(C)c1CNC(=O)Nc1ccc2c(c1)OCO2 | nt | ? | nt | 0% | 61%[activator] | nt | 0% | -4%
O=C(NCCCn1ccnc1)c1ccc(C(F)(F)F)cc1 | nt | nt | 4% | nt | -18% | nt | 1% | 6%
CCc1ccc(S(=O)(=O)/N=C2/C=C(Sc3ncn[nH]3)C(=O)c3ccccc32)cc1 | 25µM* | 13µM* | -35% | ? | 32µM* | -14% | -64% | ?
Cc1ccc(CNC(=O)C2CCCCC2C(=O)O)cc1 (stereo not given) | -1% | -1% | 3% | 12% | 5% | 3.5% | -2% | -18%
CCc1ccccc1NC(=O)CSc1nnc([C@@H](N)Cc2c[nH]c3ccccc23)o1 | 10µM* | 12% | ? | 16% | 0% | 10µM* | 2% | 6%
Cc1ncn2cc(-c3ccc(Cl)cc3Cl)[nH]c(=O)c12 | nt | 3%[46.1 µM] | -3% | 3%[46.1 µM] | -8% | nt | 1% | 20%
O=C(c1ccc(CS(=O)(=O)c2ccc(Br)cc2)o1)N1CCN(C2CCCCC2)CC1 | 1% | nt | ? | -9% | nt | 4.0% | -4% | nt
CC(=O)c1ccc(N2CCN(C(=O)c3cc4ccc5cccnc5c4[nH]3)CC2)cc1 | -19% | -2%[46.1 µM] | nt | nt | ? | -12% | nt | nt
CCN(CC(=O)Nc1ccc(S(=O)(=O)N2CCCCC2)cc1)Cc1ccccc1 | nt | 10% | nt | ? | 3% | nt | 0% | 5%
COC(OC)c1ccnc(-c2ccc(OC(=O)c3ccccc3)cc2)n1 | nt | 24% | nt | 22%[46.1 µM] | -23% | nt | -1% | 0%
O=C(CSCc1cccc(Br)c1)N/N=C/c1ccc2c(c1)OCO2 | -2% | -9% | 4% | -3% | -4% | -4.5% | -3% | 4%
COc1ccc(-n2c(NCCN(C)C)nc3sc4c(c3c2=O)CCCCC4)cc1 | -1% | -19% | -3% | 23µM* | -29% | -3.0% | 10% | 18%
CNC(=S)NN(C)c1nc(C)cc(C)n1 | 9% | 9% | 0% | 1% | 0% | 0.9% | 14% | 21%
O=C(O)c1cc(-c2ccccc2Cl)n[nH]1 | -4% | ? | -1% | -2%[46.1 µM] | 8% | -0.7% | 13% | -4%
Cc1cc(N/C(=N/S(=O)(=O)c2ccc(F)cc2)c2ccccc2)n(-c2ccccc2)n1 | nt | -5%[46.1 µM] | 1% | 2%[46.1 µM] | 2% | nt | -2% | -9%
COc1ccc(CCC(C)Nc2cccc(F)c2)cc1 (stereo not given) | -6% | -2% | -18% | 7% | -11% | -5.2% | -39% | -1%
O=C(O)C1Cc2ccccc2CN1S(=O)(=O)c1ccccc1 (stereo not given) | nt | 11% | 11% | 3%[46.1 µM] | -7% | nt | 1% | -8%
Cc1ccc(S(=O)(=O)N2CCN(C(=O)CN3CCCC3)C2)cc1 | 2% | 2% | 10% | ? | 20% | 1.8% | 1% | -3%
Nc1nc(NC(=O)c2ccc(Cl)cc2)nn1-c1ccccc1 | -4% | 6% | 17% | ? | -1% | -0.5% | 6% | -4%

Structures from the list above with a COOH group:
SMILES | Cruzain noTriton | LASV entry inh | NS1 function inh | Marburg entry inh | StopGo reporter | Cruzain inh Det | SARS PLP yeast | RE007 growth inh
Cc1ccc(CNC(=O)C2CCCCC2C(=O)O)cc1 (stereo not given) | -1% | -1% | 3% | 12% | 5% | 3.5% | -2% | -18%
O=C(O)c1cc(-c2ccccc2Cl)n[nH]1 | -4% | ? | -1% | -2%[46.1 µM] | 8% | -0.7% | 13% | -4%
O=C(O)C1Cc2ccccc2CN1S(=O)(=O)c1ccccc1 (stereo not given) | nt | 11% | 11% | 3%[46.1 µM] | -7% | nt | 1% | -8%

Three compounds already listed, ordered by molar mass, rising.
SMILES | Cruzain noTriton | LASV entry inh | NS1 function inh | Marburg entry inh | StopGo reporter | Cruzain inh Det | SARS PLP yeast | RE007 growth inh
CNC(=S)NN(C)c1nc(C)cc(C)n1 | 9% | 9% | 0% | 1% | 0% | 0.9% | 14% | 21%
CCOC(=O)c1[nH]c2ccccc2c1NC(=O)CC(C)C | nt | nt | -1% | nt | 0% | nt | 2% | 9%
O=C(NCCCn1ccnc1)c1ccc(C(F)(F)F)cc1 | nt | nt | 4% | nt | -18% | nt | 1% | 6%

(more compounds)
SMILES | Cruzain noTriton | LASV entry inh | NS1 function inh | Marburg entry inh | StopGo reporter | Cruzain inh Det | SARS PLP yeast | RE007 growth inh
OC1(c2ccc3ccccc3c2)CCN(Cc2ccccc2)C1 (stereo not given) | -9% | -18% | -8% | -15% | -15% | 4.6% | 3% | 2%
Cc1cc2c(s1)NC(=O)CN=C2c1cccs1 | 1% | 10% | 3% | -26% | -13% | 9.4% | nt | 5%
Cc1ccc(CNS(=O)(=O)c2c(C)[nH]c(=O)[nH]c2=O)cc1 | nt | nt | -4% | nt | -18% | nt | 0% | 1%
O=C(CSc1nc2ccccc2c(=O)[nH]1)N1CCN(S(=O)(=O)c2ccccc2)CC1 | 2% | 1% | 7% | -10% | -16% | 2.4% | 4% | -6%
O=C(NCCN1CCCC1)c1ccc2c(c1)N(Cc1ccc(F)cc1)C(=O)c1ccccc1S2=O (stereo not given) | ? | -9% | 13% | ? | -14% | -0.8% | -10% | 2%
Cc1ccc(NC(=O)COC(=O)C2CC(=O)N(Cc3ccccc3)C2)cc1F (stereo not given) | nt | -4% | -7% | ? | -14% | nt | -2% | -3%
CCC(C)(C)n1nnnc1C(c1ccc(C)cc1)N(Cc1ccco1)Cc1cccs1 (stereo not given) | -10% | ? | 11% | ? | -12% | 2.5% | -17% | 9%
C=C(C)c1cccc(C(C)(C)NC(=O)N2CCOCC2)c1 | -5% | 14% | -10% | -11% | -10% | 1.2% | -1% | -4%
Cc1ccc(CN2C(=O)C3(c4ccccc42)N(c2cccc(F)c2)C(=O)CS3(=O)=O)cc1 (stereo not given) | 1.6µM* | -13%[46.1 µM] | nt | nt | ? | -5.2% | nt | nt
Nc1cccc2c(=O)c3ccccc3[nH]c12 | nt | 12%[46.1 µM] | -13% | ? | -3% | nt | 0% | 10%
COc1ccc2nc(NC(=O)C3CCCN(S(=O)(=O)c4cccc5nonc45)C3)sc2c1 (stereo not given) | ? | -23% | -32% | ? | -24% | -8.0% | -4% | -5%
O=C(c1ccc2c(c1)OCCO2)C1CCN(S(=O)(=O)c2ccc(F)cc2)CC1 | 7% | -9% | -16% | -27% | ? | -9.7% | -2% | 13%
CCc1ccc(OCC2c3cc(OC)c(OC)cc3CCN2C(=O)Cc2ccc(OC)c(OC)c2)cc1 (stereo not given) | ? | ? | nt | nt | -23% | 0.0% | nt | nt
O=c1cc(N2CCN(c3ccccc3)CC2)[nH]c(=O)n1C1CCCCC1 | ? | 22% | -2% | 4% | 2% | -1.7% | 3% | 19%
O=C(Cn1cccc1C(=O)c1ccccc1)NCc1cccc(Cl)c1 | nt | ? | nt | 14% | 61%[activator] | nt | 0% | -9%
COc1ccc(C(=O)Nc2nnc(-c3cccs3)s2)cc1 | 1% | ? | -5% | 3.2µM* | 22% | -5.3% | -6% | -17%
COC(=O)c1ccc(C(=O)OC)c(NS(C)(=O)=O)c1 | -25% | -2% | 2% | -7% | 28% | -2.6% | -2% | 3%
Nc1nc(NCc2ccco2)nc(Nc2ccccc2)c1[N+](=O)[O-] | nt | 2%[46.1 µM] | -4% | 3%[46.1 µM] | 0% | nt | 0% | -7%
COc1ccc(N(CC(=O)NCc2ccco2)S(=O)(=O)c2ccc(OC)c(OC)c2)cc1 | 15% | -2% | -12% | 0%&9% | 7% | 1.8% | 10% | -7%
Cc1ccc(OC(F)F)c(NC(=O)Nc2ccc3c(c2)OCO3)c1 | nt | 9% | 23% | -16% | -16% | nt | -2% | -6%
COc1ccc(NC(C)=O)cc1C | nt | -1% | nt | 17%&17%[46.1 µM] | -2% | nt | -1% | -11%
CCC(CC)N=C1NS(=O)(=O)c2cc([N+](=O)[O-])ccc21 | nt | 2%[46.1 µM] | 3% | -9%[46.1 µM] | 28% | nt | 1% | -9%
N#Cc1cccc(NS(=O)(=O)c2ccc(S(=O)(=O)N3CCOCC3)cc2)c1 | nt | -7% | nt | 2% | 3% | nt | 0% | -11%
Cc1ccccc1NS(=O)(=O)c1ccc(C2CNC(=O)C2)cc1 (stereo not given) | 2% | 30%[14.3 µM] | -7% | ? | 0% | 4.9% | 9% | -11%
O=C(N/C(=C/c1ccco1)C(=O)N1CCOCC1)c1ccccc1Br | nt | 0% | 8% | 26% | -18% | nt | 0% | 1%
COc1cccc(/C=N/NC(=O)c2nc(-c3ccccc3)cc(-c3ccccc3)n2)c1 | -25% | ? | ? | ? | ? | -1.8% | 6% | 1%
COCCCNC(CC(=O)Nc1ccc(OC)cc1OC)C(=O)O (stereo not given) | -4% | ? | -2% | 3% | 2% | 0.8% | nt | -3%

Screening data (PubChem)
